Source: PubChem BioAssay (National Center for Advancing Translational Sciences (NCATS))
VDR inh – blocks the human vitamin D receptor | 400,000 tested, 0.93% active | P11473 | Potency, µM, without a hit: max response, negative = inhibition, actives largely listed as inhibitors | VDR-SRC2-3 peptide fluorescence polarization, 2 h; active = well fitted inhibition curve with a large enough effect; inconclusive = small, poorly fitted or top-dose-only effect, or another doubt; inactive = no such curve, though single readings can be large or run the other way; also: series mostly up to about 120 µM
Target sequence (P11473 whole entry, looked up): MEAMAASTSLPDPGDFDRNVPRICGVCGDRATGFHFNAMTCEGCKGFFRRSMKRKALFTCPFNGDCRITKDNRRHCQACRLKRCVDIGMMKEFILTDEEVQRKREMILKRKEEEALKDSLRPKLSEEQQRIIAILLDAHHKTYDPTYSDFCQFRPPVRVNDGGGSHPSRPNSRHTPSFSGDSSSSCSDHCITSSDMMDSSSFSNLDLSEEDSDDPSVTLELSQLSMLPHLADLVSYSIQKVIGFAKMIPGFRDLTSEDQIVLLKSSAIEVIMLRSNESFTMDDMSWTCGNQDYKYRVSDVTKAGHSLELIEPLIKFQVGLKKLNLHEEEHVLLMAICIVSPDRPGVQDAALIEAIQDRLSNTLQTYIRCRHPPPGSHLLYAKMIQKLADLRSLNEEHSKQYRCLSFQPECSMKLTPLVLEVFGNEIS
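VDR–SRC2-3 interaction, FP format. Cmpds 23 nl via pintool, brief spin, 2 h ambient incubation.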
Starred values were filed as active, the others as inactive; ? = inconclusive; & = joins results of further samples; [ ] = another dose, or the depositor's remark. % is scaled to controls: 0 for no effect and ±100 for the full control effect; potency is read from the fitted curve at half-maximal effect. An excerpt; rates above refer to the full screens.

SMILES	VDR inh
CC(=O)N1CCN(C(=O)CCc2nc3ccccc3c(=O)[nH]2)CC1	1.9%
Cc1ccc(S(=O)(=O)N2c3ccc(S(N)(=O)=O)cc3CC2C)cc1 (configuration not stated)	-5.5%
Cc1cccc(C(=O)NCC(c2ccc3c(c2)OCO3)N2CCN(c3ccccc3F)CC2)c1 (configuration not stated)	0.8%
COc1ccc(OC)c(CCNC(=O)c2cccc(NC3=NC4CS(=O)(=O)CC4S3)c2)c1 (configuration not stated)	-12.3%
Cc1ccc(SCc2nc(-c3ccncc3)no2)cc1	-19.4%
Clc1ccc(CSc2ncnc3c2ncn3C2CCCCO2)cc1 (configuration not stated)	11.8%
C=CCN1CC(O)=C(c2nc3ccccc3[nH]2)C1=N	1.9%
COc1cccc(C(=O)N2CCOCC2)c1OC	-9.4%
Cc1c(C)n2c(SCC(=O)N3CCOCC3)nnc2[nH]c1=O	-7.2%
COc1ccccc1CN1C(=NC(=O)C2CCCCC2)SC2CS(=O)(=O)CC21 (configuration not stated)	-7.5%
CCNc1ccc(P(=O)(c2ccccc2)c2ccccc2)cc1	5.9%
COc1ccccc1N(CC(=O)NCCSCc1ccccc1Cl)S(C)(=O)=O	10.7%&-13.2%
Cc1cc(C)c(NC(=S)N(C)C)c(C)c1	-3.3%
C/C(=N\Nc1cc(N2CCOCC2)ncn1)c1ccc(O)cc1	8.1%
Clc1ccc(OCCCN2CCCC2)cc1Cl	0.7%
CCOC(=O)c1c(NC(C)=O)c2c3c(sc2n1Cc1cccc(Cl)c1)CCCC3	-4.6%
Cc1occc1C(=O)Nc1ccc2c(c1)CCC2	-0.8%
Cc1c(N(C(=O)CNC(=O)c2ccccc2)C2(C(=O)NC3CCCC3)CCCCC2)c(=O)n(-c2ccccc2)n1C	8.3%
CC(NC(=O)c1ccc(Cl)cc1)C1CC2CCC1C2 (configuration not stated)	-6.8%
COc1ccc(-n2c(CN3CCN(c4ccccc4)CC3)nc3ccc([N+](=O)[O-])cc3c2=O)c(OC)c1	7.2%
CC(Sc1ccc(Cl)cc1)C(=O)NNC(=O)c1ccco1 (configuration not stated)	-1.1%
C=CCn1c(C)nc2c(sc3nc4c(cc32)COC(C)(C)C4)c1=O	-6.6%
COC(=O)c1ccc2c(c1)NC(=O)C1CCCN21 (configuration not stated)	?
O=C(CCCN1C(=O)/C(=C/c2ccccc2Cl)SC1=S)NNC(=O)c1ccc(Cl)cc1	-0.2%
CN(CC(=O)N(C)CC(=O)Nc1c(Cl)cccc1Cl)Cc1ccc(Br)s1	11.9%

More structures.
SMILES	VDR inh
Cc1ccc(C)c(S(=O)(=O)C(C#N)c2nc3ccccc3nc2N2CCOCC2)c1 (configuration not stated)	-15.8%
CC(C)CC(=O)Nc1ccc(C(=O)OCc2cc(=O)n3nc(C4CCCCC4)sc3n2)cc1	9.2%
COc1ccc(C)cc1NC(=O)CN1c2cccc3cccc(c23)S1(=O)=O	-7.6%
O=C(Nc1cc(C2CC2)nn1-c1ccccc1)c1ccc(F)cc1	8.0%
CC(=O)c1cccc(Nc2cc(C)nc3ccc(C)cc23)c1	-11.4%
CCOc1ccc(C(=O)Nc2c(C(=O)N3CCC(N4CCCCC4)CC3)oc3ccccc23)cc1	-0.2%
Cc1ccc(NC(=O)CCCCCNS(=O)(=O)c2ccc(C)cc2)cc1	-16.1%
O=c1c2ccccc2[nH]c(=S)n1Cc1ccccc1	13.0%
CCC(CO)Oc1cc(NC(=O)c2ccc(Cl)cc2)c2ncn(C(C)C)c2c1 (configuration not stated)	-27.1%
CN(C(=O)Cn1cc([N+](=O)[O-])ccc1=O)C1CCCCC1	6.2%
Cc1cc(NC(=O)CSc2ccc3nnc(-c4cccs4)n3n2)no1	13.0%
Cc1ccc2c(c1)N(CC(=O)NC1CCCC1)C(=O)CO2	18.6%
Cc1ccc(NS(=O)(=O)c2cc(C(=O)N3CCOCC3)ccc2C)cc1C	0.5%
CC(=O)c1cccc(NC(=O)c2cc(C)nn2-c2ccccc2)c1	-12.6%
CCOC(=O)C1=C(C)C(c2ccccc2OC)NC(=O)N1 (configuration not stated)	10.3%
CC(=O)Nc1cccc(C(=O)/C=C/c2ccc(Br)cc2)c1	25.1µM*
Cc1ccnc(NS(=O)(=O)c2ccc(NS(=O)(=O)c3ccc([N+](=O)[O-])cc3)cc2)n1	9.6%
CC(=O)OCOC(=O)CN(CC(=O)OCOC(C)=O)c1ccccc1OCCOc1ccccc1N(CC(=O)OCOC(C)=O)CC(=O)OCOC(C)=O	0.6%
CC1(C)CC(NC(=O)c2cccc(Cl)c2)CC(C)(C)N1	12.3%
CCCCCCCCCCC(CO)CCCCCCCC (configuration not stated)	2.5%
COc1ccc(CCNC(=O)COC(=O)/C=C/c2ccc(OCC#N)c(OC)c2)cc1	-7.7%
O=C(Nc1ccc(Cl)cc1)c1cc2c(Cl)nc3ccccc3c2s1	5.1%
COc1ccccc1NS(=O)(=O)c1ccc(C)c(NC(=O)C2CCCO2)c1 (configuration not stated)	-16.1%
CCOC(=O)c1ccc(CN(Cc2ccc(Cl)cc2Cl)S(=O)(=O)c2ccc(F)c(C)c2)cc1	5.1%
CCOc1cc(C2C3=C(CC(C)(C)CC3=O)OC3=C2C(=O)CC(C)(C)C3)cc([N+](=O)[O-])c1O	5.4%

Molecules from the list above that have bromine:
SMILES	VDR inh
CN(CC(=O)N(C)CC(=O)Nc1c(Cl)cccc1Cl)Cc1ccc(Br)s1	11.9%
CC(=O)Nc1cccc(C(=O)/C=C/c2ccc(Br)cc2)c1	25.1µM*

VDR inh: entries above that show a hit.
SMILES	VDR inh
CC(=O)Nc1cccc(C(=O)/C=C/c2ccc(Br)cc2)c1	25.1µM*

(cont.)
SMILES	VDR inh
N/C(COc1cccc(Cl)c1)=N\NS(=O)(=O)c1ccccc1	-27.4%
CC(C)(C)NC(=O)C(c1cccnc1)N(C(=O)c1ccc(Cl)nc1)C1CCCC1 (configuration not stated)	-1.0%
O=C(Nc1ccc(O)c2c(=O)cc(-c3cccc(Cl)c3)oc12)c1ccc(F)cc1	-6.3%
COc1ccc(C(=O)NCC2(c3ccccc3)CCOCC2)cc1[N+](=O)[O-]	?
CSc1ccccc1NC(=O)COC(=O)CCCOc1ccc(C)cc1	-2.2%
CC(C)(C)NC(=O)NC(=O)CN1CCCc2ccccc21	11.3%
O=C(CCc1nnc2ccc(NCc3ccco3)nn12)Nc1ccc(F)cc1	2.3%
CCOc1ccc(N(CC)C(=O)c2cc3c(=O)oc4ccccc4c3s2)cc1	-18.0%
Cc1cc(C(=O)NN=C(Cc2ccccc2)Cc2ccccc2)c(C)o1	-8.9%
Cc1nn(CC(=O)NC2CCC(C)CC2)c(=O)c(C#N)c1C (configuration not stated)	3.8%
Cc1cc(-c2ccc3ccccc3c2)n2ncnc2n1	-23.7%
COc1ccc(C(=O)OCC(=O)Nc2cccc(C(C)=O)c2)c(OC)c1OC	5.1%
COc1ccc(C(=O)N2CCN(Cc3ccccc3)CC2)cc1[N+](=O)[O-]	-18.4%
CCn1c(=O)c2cc(C(=O)N3CCOCC3)sc2c2ccccc21	-3.3%
COc1ccccc1C(c1nnnn1C1CCCC1)N1CCN2CCCC2C1 (configuration not stated)	-10.9%
O=C(Cn1cnc2sc3c(c2c1=O)CCCC3)NCC(=O)Nc1c(F)cc(F)cc1Br	-14.2%
CC/C(=C\c1ccc(Cl)cc1)c1ccncc1	-4.5%
O=C(CSc1nnc(SCc2ccc(Cl)cc2)s1)c1ccc2c(c1)OCO2	4.1%
CC(=NCCCn1ccnc1)C1=C(O)c2ccccc2C1=O	1.5%
O=C(NNc1nc(-c2ccc(F)cc2)cs1)c1ccccc1	-9.0%
COc1ccccc1NC(=O)C1CCCN(c2cnccn2)C1 (configuration not stated)	-3.6%
CCOc1ccccc1C(=O)NN1CCOCC1	-6.1%
Cc1ccc(CN2CCC(CNC(=O)c3ccc(NC(=O)C4=CSCCO4)cc3)CC2)cc1	-1.9%
Cc1ccccc1-c1noc(-c2ccccc2C(=O)O)n1	-11.0%
S=c1[nH]c2cc3c(cc2[nH]1)OCCO3	1.4%

Reformatted: entries from further up
| Compound | VDR inh |
| --- | --- |
| COc1ccc(C(=O)NCC2(c3ccccc3)CCOCC2)cc1[N+](=O)[O-] | ? |
| CSc1ccccc1NC(=O)COC(=O)CCCOc1ccc(C)cc1 | -2.2% |
| CC(C)(C)NC(=O)NC(=O)CN1CCCc2ccccc21 | 11.3% |
| O=C(CCc1nnc2ccc(NCc3ccco3)nn12)Nc1ccc(F)cc1 | 2.3% |
| CCOc1ccc(N(CC)C(=O)c2cc3c(=O)oc4ccccc4c3s2)cc1 | -18.0% |
| Cc1cc(C(=O)NN=C(Cc2ccccc2)Cc2ccccc2)c(C)o1 | -8.9% |

Going on with the list:
SMILES	VDR inh
CC(=O)Nc1ccc(N(C(=O)c2ccco2)C(C(=O)NC2CCCCC2)c2ccccc2)cc1 (configuration not stated)	-15.3%
O=C(Nc1ccc(/C=C/c2nc3ccccc3o2)cc1)c1c(F)cccc1F	15.1%
COC(=O)c1ccc(NC(=O)CSc2nn3c(=O)c(C)nnc3s2)cc1	7.6%
O=C(O)CC/C(=C\c1cc([N+](=O)[O-])ccc1Cl)c1nc2ccccc2s1	-17.4%
CCC(=O)N1CCN=C1SCc1ccc(Cl)cc1	-9.8%
COc1ccc(-n2c(SC)nc3sc4c(c3c2=O)CCN(C(C)=O)C4)cc1	-3.0%
CC(NC(=O)c1cc(-c2ccc3c(c2)OCO3)nc2ccccc12)C(C)(C)C (configuration not stated)	-2.0%
CN(C(=O)c1cc2c(s1)-c1ccccc1S(=O)(=O)C2)c1ccccc1F	4.6%
COc1ccc(CCNS(=O)(=O)c2c(C)nc3scc(C)n3c2=O)cc1OC	-2.5%
O=C(CSc1nc2ccc([N+](=O)[O-])cc2[nH]1)NC1CCCC1	-11.3%
O=C(N/N=C/C1CC=CCC1)c1cc(Br)ccc1O (configuration not stated)	11.6%
CCc1ccccc1NC(=S)N=Nc1c(O)n(C)c2ccc(S(=O)(=O)N3CCOCC3)cc12	-27.7%
COc1ccc(C(=O)COC(=O)/C=C/c2ccccc2)cc1	-5.3%
CCC1Oc2ccc(Cl)cc2N(CC(=O)NCCc2ccc(Cl)cc2)C1=O (configuration not stated)	9.9%
Cc1cc(F)ccc1NC(=O)CS(=O)(=O)c1cccc2nsnc12	4.5%
O=C(CSc1nnc(-c2ccccc2Cl)o1)N1CCCC1	-8.4%
O=C1OC(c2ccccc2)/C(=C(/O)c2ccccc2)C1=O (configuration not stated)	-29.9%
C=CCC1Cc2c(cccc2[N+](=O)[O-])C(CC=C)N1 (configuration not stated)	-10.9%
COC(C(=O)N/N=C(\C)CC(=O)Nc1ccc(N(C)C)cc1)c1ccccc1 (configuration not stated)	-5.9%
O=C(CSc1nnc(CNC(=O)c2ccc(F)cc2)o1)NCc1ccccc1Cl	0.4%
Cc1ccc(C(=O)N2CC(C)OC(C)C2)cc1[N+](=O)[O-] (configuration not stated)	-4.0%
CCOCCCn1c(=N)c(S(=O)(=O)c2ccc(Cl)cc2)cc2c(=O)n3cccc(C)c3nc21	-9.5%
COc1ccc(OC)c(-n2nnc3c(sc4nc(C)c(Br)c(C)c43)c2=O)c1	10.4%
O=C(Cn1c(=O)n(CCCS(=O)(=O)C2CCCCC2)c(=O)c2ccccc21)Nc1ccccc1C(F)(F)F	-10.7%
Cc1cccc(SCc2noc(C(=O)NCC3CCCO3)c2C(=O)O)c1 (configuration not stated)	-9.0%

The listing continues:
SMILES	VDR inh
CCC(C)N=C1SCC(C)(/C=N/O)S1 (configuration not stated)	8.0%
CCOCCn1c(SCCc2ccccc2)nc2c1c(=O)[nH]c(=O)n2C	?
c1cncc(-c2nn3cnnc3s2)c1	17.4%
Cc1ccc(-n2nnnc2SCC(=O)Nc2ccccc2N2CCCCC2)cc1C	72.9%[activator]
CC1=CC2=NC(=O)CC(C)(C(=O)N(CC(=O)NC(C)(C)C)Cc3ccccc3)N2C=C1 (configuration not stated)	-9.8%
O=C(Nc1ccc(CN2CCOCC2)cc1)c1cc(Cl)ccc1Cl	-6.4%
O=C1C=C(N2CCOCC2)C2(CCCCC2)O1	-1.2%
O=S1(=O)c2c(Oc3cccc4ccccc34)cccc2OC(COCc2ccccc2)CN1C1CCCC1 (configuration not stated)	-7.2%
COCc1nnc(NC(=O)c2ccc(S(=O)(=O)N3CCCC3)cc2)o1	-9.7%
COc1ccccc1NC(=O)NC1(C(=O)N2CCOCC2)CCCCC1	-1.7%
COc1ccc(NC(=O)c2ccccc2NS(=O)(=O)c2ccc(CNC(C)=O)cc2)c(OC)c1	9.1%
Cc1cc(C)nc(NS(=O)(=O)c2ccc(NC(=O)C3COc4ccccc4O3)cc2)n1 (configuration not stated)	37.3%[activator]
Cc1cccc(NC(=O)N2CCN(Cc3ccccc3)CC2)c1	-11.6%
O=CN1CCN(C(=O)c2ccc(-c3nc4ccccc4s3)s2)CC1	7.6%
Cc1ccc(N(CC(=O)N2CCCC2)S(C)(=O)=O)cc1C	-13.5%
COC(=O)c1ccc(NC(=O)CSc2nc(=O)n3cccc(C)c3n2)cc1	-7.1%
OC(c1ccccc1)(C1CCCCC1)C(CN1CCOCC1)c1ccccc1 (configuration not stated)	-8.4%
O=C(CC1(O)C(=O)Nc2ccc(Br)cc21)c1ccc2c(c1)OCO2 (configuration not stated)	-8.7%
CN(C)S(=O)(=O)N1CCCC(C(=O)c2ccc(C(F)(F)F)cc2)C1 (configuration not stated)	3.5%
Cc1cccc(/C=N\Nc2cn[nH]c(=O)c2Cl)c1	1.4%
O=C(CSc1nc(-c2ccc(F)cc2)cs1)Nc1ccccn1	-3.2%
O=C(NC1CCS(=O)(=O)C1)C12CC3CC(CC(C3)C1)C2 (configuration not stated)	-0.1%
Brc1ccc(-c2csc(-c3nc(-c4ccc(Br)s4)cs3)n2)cc1	-5.5%
O=C(Nc1cccnc1Cl)C1=NN(c2ccccc2)C(=O)CC1	25.6%
O=C(Nc1ccccc1)c1ccccc1NC(=O)[C@H]1CCCC[C@H]1C(=O)O	-10.7%
Cc1c(Cl)cccc1NC(=O)CSc1nnc(C)n1CC1CCCO1 (configuration not stated)	20.7%
